UCH37 DUB inh: blocks the human deubiquitinase UCH37. inhibition, % (test concentration not listed). purified proteasome/UCH37, Ub-AMC cleavage fluorescence. actives 0.33% (n = 330,000). AID 588478. Q9Y5K5;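 active = mean of two replicates above 20%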;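 also: 0% = compound-free wells with enzyme and 100% = wells lacking proteasome; stock transfer was 100 nL into about 20 µL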
Target sequence (Q9Y5K5 whole entry, looked up): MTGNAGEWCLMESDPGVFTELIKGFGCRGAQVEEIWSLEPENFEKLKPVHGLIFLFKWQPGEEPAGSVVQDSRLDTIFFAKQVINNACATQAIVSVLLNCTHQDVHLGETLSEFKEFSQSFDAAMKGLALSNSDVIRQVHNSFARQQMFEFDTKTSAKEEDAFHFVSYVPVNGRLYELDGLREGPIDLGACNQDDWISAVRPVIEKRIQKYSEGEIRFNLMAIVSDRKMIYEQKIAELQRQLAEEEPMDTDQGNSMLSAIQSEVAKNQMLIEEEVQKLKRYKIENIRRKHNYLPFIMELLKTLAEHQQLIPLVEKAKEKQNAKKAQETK
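Material: Human UCH37 enzyme supplied as purified proteasome complex | Schedule: 30 min compound-proteasome preincubation then 25 min substrate reaction, room temperature | Detection: AMC fluorescence from Ub-AMC cleavage, excitation 355 nm, emission 460 nm | Benchmarks: Wells without proteasome as full block, compound-free enzyme plus substrate as uninhibited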
Calb FLC: affects C. albicans growth with fluconazole; growth inhibition, % (concentration not given with the values); C. albicans CaCi-2 (fluconazole-resistant clinical isolate) + fluconazole, Alamar Blue growth, 48 h; actives 0.57% (n = 300,000);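 active = most replicates above 75%; inconclusive = exactly half above 75%; inactive = most below 75%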;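 also: all wells also contain fluconazole at 8 µg/ml as a sub-toxic cotreatment; 0% = median of DMSO wells and 100% = median of geldanamycin control wells; wells of about 8 µL received 7.5 nL stock; the first replicate is given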
Beta2AR agonist: activates human beta-2 adrenergic receptor causing internalization; P07550; Am2.2-beta2AR cells, FAP receptor internalization, flow cytometry; reference of the scale not given here; response, % (no concentration beside the values); actives 0.43% (n = 340,000);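 active = response above a set limit, near 3 SD of response in nonfluorescent compounds, cut at about 42% in these data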;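 also: stock transfer was 100 nL into about 11 µL; a reference agonist was the positive control; negative values mostly stem from fluorescent compounds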
Target sequence (P07550 whole entry, looked up): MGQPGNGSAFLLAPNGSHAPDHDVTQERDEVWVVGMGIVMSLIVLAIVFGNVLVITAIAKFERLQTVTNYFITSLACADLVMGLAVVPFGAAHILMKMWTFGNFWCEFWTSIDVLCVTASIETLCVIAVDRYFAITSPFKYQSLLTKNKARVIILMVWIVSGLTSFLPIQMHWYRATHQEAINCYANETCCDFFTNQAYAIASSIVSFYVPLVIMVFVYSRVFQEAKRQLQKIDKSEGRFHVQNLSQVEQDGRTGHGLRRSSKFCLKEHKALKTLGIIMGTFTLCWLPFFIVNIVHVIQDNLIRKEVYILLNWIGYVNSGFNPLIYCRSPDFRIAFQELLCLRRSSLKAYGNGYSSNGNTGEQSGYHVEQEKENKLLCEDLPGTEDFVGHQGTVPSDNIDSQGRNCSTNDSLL
RanGTP-Imp inh: inhibitors of RanGTP-importin-beta interaction, primary screen, biochemical, FRET, CFP-Ran, YFP-importin-beta, homogeneous | actives 1.1% (n = 300,000) | inhibition, % (test concentration not listed) | cell-free CFP-Ran/YFP-importin-beta FRET ratio | AID 2216;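 active = most replicates above 15%; inconclusive = exactly half above 15%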;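 also: 0% = DMSO wells and 100% = Ran loaded with GDP instead of GTP; wells of about 40 µL received 100 nL stock; the first replicate is given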
Bfl-1 A1 inh: inhibitors of the anti-apoptotic protein A1, read as caspase activation | caspase activation, % (concentration not given with the values) | actives 0.066% (n = 330,000) | MEF A1-2A-BIM cells, Caspase-Glo 3/7 luminescence, 3 h; percent of clofoctol response, vehicle zero;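 active = over half of replicate activation scores above 10%, or exactly half above 10 with the replicate mean above 10; inconclusive = replicate mean below 10 yet half the replicates above 10; inactive = over half of replicates below 10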;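 also: wells of about 30 µL received 50 nL stock; many hits fall short of the cut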
LANA-H2B inh: blocks KSHV LANA binding to histone H2A/H2B; AID 2629; cell-free LANA-H2A/H2B peptide, fluorescence polarization; inhibition, % (test concentration not listed); Q9QR71; actives 0.6% (n = 320,000); in the data active = inhibition mostly above about 10%, no sharp cut-off; inactive = mostly below about 6.7%;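 also: stock transfer was 7.5 nL into about 10 µL; 0% = median of vehicle wells and 100% = median of positive control wells; one replicate is shown; the record names a cut of 25% in any replicate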
T cruzi repl: blocks replication of Trypanosoma cruzi; actives 1.4% (n = 300,000); T. cruzi beta-gal in NIH3T3, luminescence, 90 h; AID 1885; inhibition, % (test concentration not listed);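 active = mean inhibition across valid replicates above about 55%, limit read from the data; inconclusive = mean below that limit but half or more replicates reach it; inactive = mean below it, under half of replicates reach it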;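 also: signal also drops with host cell toxicity which is not excluded here; 0% = plate median of DMSO wells and 100% = zero luminescence signal; higher percent means less beta-gal luminescence so fewer parasites; stock transfer was 50 nL into about 50 µL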
Beta cell apopt: beta cell apoptosis inhibition; INS-1E cytokine-induced death, ATP luminescence, 48 h; percent of positive-control rescue, neutral wells zero; protection from apoptosis, % (no concentration beside the values); AID 435005; actives 0.8% (n = 300,000);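 active = all replicates at 75% or more, or half of them and the mean; inconclusive = half reach 75% but not the mean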;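 also: 0% = cytokine-treated negative control wells and 100% = positive control rescue; higher means more ATP so stronger rescue from cytokine killing; wells of about 40 µL received 100 nL stock; the first replicate is given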
Active calls of the source: *; ? = inconclusive; . = not tested or not shown. Random draw from the library; any-hit rate near 4.3%.

SMILES	UCH37 DUB inh	Calb FLC	Beta2AR agonist	RanGTP-Imp inh	Bfl-1 A1 inh	LANA-H2B inh	T cruzi repl	Beta cell apopt
O=P(O)(CCCP(=O)(O)CCc1ccccc1)CCc1ccccc1	0.4	2	2	0.4	-1.3	4.9	-10	-4
Cc1c(Br)c([N+](=O)[O-])nn1CC(=O)N1CCCc2ccccc21	1.0	-2	0	9.0	0.2	8.5	16	4
Cc1cc2oc(=O)cc(CN3CCN(C/C=C/c4ccccc4)CC3)c2cc1O	.	-30	16	-1.6	2.0	2.6	55*	12
Cc1ccc(/C=C/C(=O)N2CCN(S(=O)(=O)c3c(C)c(C)cc(C)c3C)CC2)o1	1.8	-2	4	8.5	-0.1	-2.2	29	1
COc1ccc(Cn2c(-c3ccc(C)cc3)c[n+]3ccccc23)cc1	1.2	-9	3	-1.0	-0.4	4.1	?	93*
O=C(OCC#CCSc1nnc(-c2ccc(Br)cc2)o1)c1cccs1	7.9	-9	7	1.4	-1.6	-0.1	7	-5
CC1CCc2c(sc(NC(=O)COC(=O)C3CCCO3)c2C#N)C1 (stereo not given)	1.2	7	-5	2.2	2.2	2.3	-11	-5
CC(=O)Nc1ccc(S(=O)(=O)N2C(C)CCCC2C)cc1 (stereo not given)	3.0	1	5	-4.7	0.2	1.1	-23	-1
CC(C)(C)NC(=O)CN(Cc1ccco1)C(=O)CCC(=O)Nc1nccs1	3.7	-1	4	-0.9	0.3	-4.1	-6	-4
CCCCN(CC)Cc1c(C)[nH]c2c(ccc3ccccc32)c1=O	-12	.	-8	-4.6	-0.5	-3.5	-17	-7
O=C(O)c1ccc(/C=N/NC(=S)NCc2ccccc2)cc1	.	-11	-5	4.0	0.2	-1.5	-12	-6
O=C(COc1ccc(F)cc1)N(Cc1cccs1)C1CCS(=O)(=O)C1 (stereo not given)	5.1	2	1	-10	.	2.7	5	-4
CCOC(=O)C(C)n1cnc2c(oc3ccccc32)c1=O (stereo not given)	5.5	-4	-5	0.1	0.1	4.8	5	3
COc1cccc(C(O)Cc2nc3ccccc3n2C)c1OC (stereo not given)	2.5	-9	-8	0.7	0.5	-16	6	5
CCC(C(=O)Nc1cc(Cl)c(OC)cc1OC)c1ccccc1 (stereo not given)	3.0	-16	4	1.3	0.1	-1.5	14	-6
CCn1c(SCC(=O)N2CCN(C)CC2)nc2c1c(=O)n(C)c(=O)n2C	0.3	1	0	1.1	0.4	0.9	-5	-8
O=C(COc1cc(F)ccc1[N+](=O)[O-])Nc1ccc(N2CCOCC2)cc1	2.1	-2	2	-3.7	-0.8	0.5	-2	-5
Cc1ncc(N=Nc2ccccc2Cl)c(-c2ccccc2)n1	3.3	-20	-1	-2.2	-0.4	1.7	1	-12
Cc1c(C(=O)O)oc2ccc(S(=O)(=O)NCc3ccc(F)cc3)cc12	-0.7	2	-6	?	0.7	8.2	-6	-6
Cc1ccc(CNC(=O)CO/N=C/c2ccc(C(C)(C)C)cc2)cc1	.	-70	-18	0.7	-0.7	3.5	2	.
Cc1c(NC(=O)CSc2nc3c(cnn3-c3ccccc3)c(=O)[nH]2)c(=O)n(-c2ccccc2)n1C	3.3	1	-4	4.7	-0.5	-0.5	-22	-7
CC1(C)Oc2cc3oc(-c4cc(O)cc(O)c4)cc3cc2CC1O (stereo not given)	-18	4	10	0.8	-1.1	1.7	5	-10
O=C(Cc1c(F)cccc1Cl)N1CCN(S(=O)(=O)c2cccc(F)c2)CC1	2.7	2	-2	3.9	0.0	1.5	0	.
COc1ccccc1CNC(=O)c1ccc(CS(=O)(=O)c2ccccc2OC)o1	3.7	-5	-6	2.2	0.3	2.4	-4	-2
N#CC1=C(N)Oc2n[nH]c(-c3ccc(F)cc3)c2C1c1cccc(OC(=O)N2CCOCC2)c1 (stereo not given)	1.2	-9	8	-2.8	0.0	0.7	2	-10
O=C(Nc1ccc(Oc2cccnc2)cc1)C1CCN(Cc2cccc(Cl)c2)CC1	0.1	28	-1	7.1	-0.3	-4.2	21	-3
CCOC(=O)c1c(NC(=O)CN2C(=O)NC(C)(c3ccc(OC(F)F)cc3)C2=O)sc(C)c1C (stereo not given)	0.8	25	8	6.5	-0.3	0.8	32	-3
CCOC(=O)C1=C(C)N(c2ccccc2)C(=O)NC1c1cccc([N+](=O)[O-])c1 (stereo not given)	1.3	3	2	0.0	-0.8	.	8	-1
Cc1ccccc1NS(=O)(=O)c1ccc(OCC(=O)NCc2cccnc2)cc1	2.0	-2	-6	2.6	-0.3	.	4	10
COC(=O)c1ccccc1NC(=O)c1nc2nc(C)cc(C(F)F)n2n1	0.7	-20	-13	-2.7	-0.2	-2.2	4	5

Some of the entries so far, as comma-separated lines.
SMILES,UCH37 DUB inh,Calb FLC,Beta2AR agonist,RanGTP-Imp inh,Bfl-1 A1 inh,LANA-H2B inh,T cruzi repl,Beta cell apopt
CCn1c(SCC(=O)N2CCN(C)CC2)nc2c1c(=O)n(C)c(=O)n2C,0.3,1,0,1.1,0.4,0.9,-5,-8
O=C(Cc1c(F)cccc1Cl)N1CCN(S(=O)(=O)c2cccc(F)c2)CC1,2.7,2,-2,3.9,0.0,1.5,0,.

Continuation:
SMILES	UCH37 DUB inh	Calb FLC	Beta2AR agonist	RanGTP-Imp inh	Bfl-1 A1 inh	LANA-H2B inh	T cruzi repl	Beta cell apopt
Cc1ccc(NC(=O)COC(=O)CN2CCCCCC2=O)cc1C	1.1	.	7	.	-1.1	-0.9	.	1
Cc1cc(C)n(C(=O)c2ccc([N+](=O)[O-])cc2[N+](=O)[O-])n1	1.4	7	6	-2.3	1.1	-1.9	51	6
CCOC(=O)N1CCC(N2C(=O)c3ccccc3C2Nc2ccc(Cl)cn2)CC1 (stereo not given)	0.0	33	-8	-0.8	-0.3	0.4	12	11
O=C(COC(=O)C1(c2ccccc2F)CCCC1)N1CCN(C(=O)c2ccco2)CC1	-0.6	0	5	-4.3	0.2	-1.3	-15	-10
Cc1noc(C)c1COC(=O)COc1ccc2c(C)cc(=O)oc2c1	-16	-10	3	-2.0	-0.2	-0.6	-9	-2
CCCOC(=O)CCc1n[nH]c(=O)[nH]c1=O	4.1	-4	2	-1.8	-0.2	1.6	-30	2
COc1ccc2c(c1)CCCC21SC(NC(C)=O)=NN1C(C)=O (stereo not given)	2.3	-1	6	2.8	-0.4	2.2	-13	-3
Cc1ccc(N(C(C)C(=O)N2CCOCC2)S(C)(=O)=O)cc1C (stereo not given)	4.1	-3	6	?	0.0	0.7	-12	-4
COc1ccc(NC(=O)C2CCCN2S(=O)(=O)c2ccc(C)cc2)cc1 (stereo not given)	2.0	?	5	4.6	-1.1	-3.2	-10	-2
Cc1ccc(C(=O)NCC(=O)OCC(=O)c2cc(C)n(Cc3ccco3)c2C)cc1	-2.4	43	1	2.2	-0.2	1.7	-3	-2
CC(C)(CN1CCCC1)NC(=O)C1CCC(=O)N(CCCN2CCOCC2)C1 (stereo not given)	0.4	18	-4	0.3	-0.7	0.0	-8	-2
O=C(NCC(c1cccs1)N1CCOCC1)C1CCN(S(=O)(=O)c2c(Cl)cccc2Cl)CC1 (stereo not given)	-1.3	-2	1	-0.7	0.3	6.4	1	6
Cc1cccc(C)c1OCC(=O)N=Nc1c(O)[nH]c2ccc(Br)cc12	6.3	7	6	-2.5	0.7	-2.2	21	0
COC(=O)c1ccc(NC(=O)C2CCCN2C(=O)Nc2cccc(C(C)=O)c2)cc1 (stereo not given)	1.0	-3	-1	-4.6	.	.	4	.
CO/N=C/C(C#N)c1ncc(C(F)(F)F)cc1Cl (stereo not given)	.	-4	8	-0.4	-0.7	3.9	-19	30

Some of these compounds in order of heavy-atom count, high to low.
SMILES	UCH37 DUB inh	Calb FLC	Beta2AR agonist	RanGTP-Imp inh	Bfl-1 A1 inh	LANA-H2B inh	T cruzi repl	Beta cell apopt
O=C(NCC(c1cccs1)N1CCOCC1)C1CCN(S(=O)(=O)c2c(Cl)cccc2Cl)CC1 (stereo not given)	-1.3	-2	1	-0.7	0.3	6.4	1	6
Cc1ccc(C(=O)NCC(=O)OCC(=O)c2cc(C)n(Cc3ccco3)c2C)cc1	-2.4	43	1	2.2	-0.2	1.7	-3	-2
CCOC(=O)N1CCC(N2C(=O)c3ccccc3C2Nc2ccc(Cl)cn2)CC1 (stereo not given)	0.0	33	-8	-0.8	-0.3	0.4	12	11
CC(C)(CN1CCCC1)NC(=O)C1CCC(=O)N(CCCN2CCOCC2)C1 (stereo not given)	0.4	18	-4	0.3	-0.7	0.0	-8	-2
COc1ccc(NC(=O)C2CCCN2S(=O)(=O)c2ccc(C)cc2)cc1 (stereo not given)	2.0	?	5	4.6	-1.1	-3.2	-10	-2
Cc1cccc(C)c1OCC(=O)N=Nc1c(O)[nH]c2ccc(Br)cc12	6.3	7	6	-2.5	0.7	-2.2	21	0
Cc1ccc(NC(=O)COC(=O)CN2CCCCCC2=O)cc1C	1.1	.	7	.	-1.1	-0.9	.	1
Cc1ccc(N(C(C)C(=O)N2CCOCC2)S(C)(=O)=O)cc1C (stereo not given)	4.1	-3	6	?	0.0	0.7	-12	-4
Cc1cc(C)n(C(=O)c2ccc([N+](=O)[O-])cc2[N+](=O)[O-])n1	1.4	7	6	-2.3	1.1	-1.9	51	6
CO/N=C/C(C#N)c1ncc(C(F)(F)F)cc1Cl (stereo not given)	.	-4	8	-0.4	-0.7	3.9	-19	30
CCCOC(=O)CCc1n[nH]c(=O)[nH]c1=O	4.1	-4	2	-1.8	-0.2	1.6	-30	2

Further entries
SMILES	UCH37 DUB inh	Calb FLC	Beta2AR agonist	RanGTP-Imp inh	Bfl-1 A1 inh	LANA-H2B inh	T cruzi repl	Beta cell apopt
Cc1ccccc1-n1ncc2c1CC(C)(C)CC2NC(=O)c1snnc1C (stereo not given)	7.3	-6	-2	2.5	2.9	0.0	-5	6
O=C(Nc1ccccc1F)C1CCN(S(=O)(=O)c2cccc3nonc23)CC1	4.3	-3	-4	1.1	0.0	-1.8	-17	-2
Cc1c(C(=O)N(C)CCc2cnn(C)c2)oc2c(F)cccc12	1.3	1	-2	3.2	-0.1	2.3	5	.
CN1CCN(C(=O)C23CCC(C)(c4nc5ccccc5nc42)C3(C)C)CC1 (stereo not given)	-1.2	1	1	5.4	-0.6	-0.4	8	.
CN(NC(=O)c1ccccc1)c1nc2ccccc2nc1C(F)(F)F	-3.7	3	-10	-1.6	1.0	-2.0	-4	.
CCOc1ccc(S(=O)(=O)N2CCOCC2)cc1NC(=O)CSCC(=O)Nc1cccc(C)c1	.	-9	4	-1.2	-0.7	-3.0	4	-11
O=C(COc1cccc(C(F)(F)F)c1)N1CCN(c2ccc(O)cc2)CC1	2.6	15	2	-2.6	-0.5	-1.7	-6	3
CC1Cc2ccccc2N1C(=O)COC(=O)c1ccc(Cl)c(S(=O)(=O)N2CCOCC2)c1 (stereo not given)	2.5	.	15	.	-1.6	0.0	.	5
Cc1ccc(S(=O)(=O)NCC2(c3ccccc3)CCN(C)CC2)cc1	2.4	4	-53	-1.2	0.3	5.2	-13	.

High-throughput results deposited in PubChem by several laboratories.
